# GLA inh pH 4.5 – qHTS Assay for Inhibitors of Human alpha-Galactosidase at pH 4.5. 230,000 tested, under 10 active. purified enzyme, 4-MU-alpha-Gal fluorescence, pH 4.5. activity change, negative = inhibition, % at 105 µM. Alpha-galactosidase A (Homo sapiens), P06280; inconclusive = small, poorly fitted or top-dose-only inhibition, or a rising curve; inactive = flat fitted curve, though single readings scatter; no compound was filed as active;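 further: 0% = full activity with enzyme and -100% = basal without enzyme; dose as in the result columns while the protocol names 77 µM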
# miR-21 FLuc – qHTS Assay for Modulators of miRNAs and/orActivators of miR-21 | HeLa miR-21 FLuc reporter, luciferase, 48 h | Potency, µM (highest dose often 38.3 µM), for inactives: at the top dose reporter change, positive = more light | 340,000 tested, under 10 active | AID 2288, 2010; active = well fitted rising curve with a large enough effect; inconclusive = small, poorly fitted or top-dose-only effect; inactive = no such curve, though single readings can be large or run the other way;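 further: % of control where 0% means no effect; miR-21 action dims this reporter so a rising signal means less miR-21 action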
#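 HeLa cells stably expressing CMV-driven firefly luciferase with a downstream miR-21 binding sequence, endogenously expressing miR-21, were treated with titrations (up to about 40uM final) for 48 hours at 37 degree Celsius. Luciferase luminescence was read after lysis.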
# Rango dissoc inh – qHTS Assay for Inhibitors of RanGTP induced Rango (Ran-regulated importin-beta cargo) - Importin beta complex dissociation | Biochemical FRET Rango-importin beta, RanGTP-induced dissociation | Potency, µM (titrated, usually from 46.1 µM), for the others: at the highest dose activity change, negative = inhibition | 0.071% of 340,000 active | Snurportin-1 (Homo sapiens) + GTP-binding nuclear protein Ran (Homo sapiens) + Importin …; active means falling FRET ratio curve, often poorly fitted, with flat reads before Ran was added; inconclusive means other falling curves, or compound fluorescence or quenching; inactive means flat or rising ratio curve;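 further: potency means the concentration at half of the fitted maximal effect; % of control where 0% means no effect; nearly all actives have a fitted effect of over 45% in size; -100% = wells without RanGTP and RCC1; the record marks most hits as doubtful in a second field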
#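 Rango/importin beta premix (0.1/0.25 uM final), PBS + 1 mM DTT + 0.02% Tween-20 + 0.1% BSA; cpd 5 min RT; FRET pre-read; + RanGTP-RCC1 (0.6 uM Ran, 2 mM GTP, 0.2 uM RCC1); 45 min RT; FRET post-read, ex 430, em 486/530 nm.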
# Rango complex inh – qHTS Assay for Inhibitors of Rango (Ran-regulated importin-beta cargo) - Importin beta complex formation; Importin subunit beta-1 (Homo sapiens), Q14974; Rango CFP/YFP FRET sensor + importin beta, 45 min; Potency, µM (doses to about 92.2 µM), for the others: at the highest dose inhibition of complex formation; 0.031% of 340,000 active; active = rising FRET ratio curve, often small or poorly fitted; inconclusive = mostly compound fluorescence or quenching in the first reads; inactive = flat curves in all reads;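 further: potency means the concentration at half of the fitted maximal effect; 0% = DMSO wells and 100% = buffer wells lacking importin beta; nearly all actives have a fitted effect of over 15% in size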
# Target sequence (Q14974 whole entry, looked up): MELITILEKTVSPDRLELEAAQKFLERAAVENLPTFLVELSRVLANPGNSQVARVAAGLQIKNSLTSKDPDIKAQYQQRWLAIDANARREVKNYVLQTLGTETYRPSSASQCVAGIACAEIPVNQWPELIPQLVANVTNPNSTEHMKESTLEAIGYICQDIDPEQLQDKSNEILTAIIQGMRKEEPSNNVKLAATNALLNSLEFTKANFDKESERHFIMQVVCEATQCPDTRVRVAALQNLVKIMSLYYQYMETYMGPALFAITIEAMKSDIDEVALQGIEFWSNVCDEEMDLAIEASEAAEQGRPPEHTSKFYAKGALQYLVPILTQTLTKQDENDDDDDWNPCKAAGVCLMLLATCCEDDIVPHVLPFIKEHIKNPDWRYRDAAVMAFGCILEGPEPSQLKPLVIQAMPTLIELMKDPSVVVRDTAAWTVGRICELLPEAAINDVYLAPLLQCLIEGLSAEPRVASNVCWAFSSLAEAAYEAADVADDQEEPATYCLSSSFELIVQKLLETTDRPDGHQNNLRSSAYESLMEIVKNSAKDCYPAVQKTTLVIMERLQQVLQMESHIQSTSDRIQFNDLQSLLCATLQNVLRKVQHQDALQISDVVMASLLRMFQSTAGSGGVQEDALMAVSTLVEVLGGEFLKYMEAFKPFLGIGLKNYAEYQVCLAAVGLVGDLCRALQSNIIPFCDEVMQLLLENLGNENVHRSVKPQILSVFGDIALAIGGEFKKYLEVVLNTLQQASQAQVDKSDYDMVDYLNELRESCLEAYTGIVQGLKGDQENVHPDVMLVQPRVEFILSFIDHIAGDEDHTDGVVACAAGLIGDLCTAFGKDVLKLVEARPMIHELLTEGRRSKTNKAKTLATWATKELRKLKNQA
#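 Inhibition scored from the CFP 486 nm/YFP 530 nm FRET ratio 45 min after adding 0.125 microM importin beta to 50 nM Rango biosensor preincubated 5 min with compound (room temperature, PBS with DTT, Tween-20, BSA). No-importin wells as positive control.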
# The depositor's hits bear a star; ? = inconclusive; . = no result given.
SMILES,GLA inh pH 4.5,miR-21 FLuc,Rango dissoc inh,Rango complex inh
COc1ccc(C(=O)C2CCCN(C(=O)c3cccnc3SC)C2)c(C)c1 (configuration not stated),-5,-5%,-14%,2.4%
COc1ccc(N2CCN(C(=O)COC(=O)CCOc3ccc(C(C)(C)C)cc3)CC2)cc1,.,.,1%,-5.9%
Cc1cc(C)c(S(=O)(=O)Nc2ccc(O)cc2)c(C)c1,-2,0%,10%,-1.7%
COc1ccc(C(=O)Nc2cccnc2)cc1C(=O)Nc1cccnc1,.,3%,2%,1.8%
CCOc1ccc(N(CC(=O)NCC(C)C)S(C)(=O)=O)cc1,1,-1%,7%,-0.2%
NC(=O)c1ncn([C@@H]2O[C@H](CNCc3c(OCc4ccccc4F)ccc4ccccc34)[C@@H](O)[C@H]2O)n1,.,.,-11%,-0.1%
Cc1ccc(C)c(S(=O)(=O)Nc2ccc(C(=O)NCCCN3CCCC3=O)cc2)c1,.,0%,3%,-0.8%
N#C/C(=C\c1c(F)cccc1Cl)C(=O)NC1CC1,.,0%,3%,-0.4%
CCOC(=O)N1CCN(C(=O)/C=C/c2ccc([N+](=O)[O-])cc2)CC1,5,4%,3%,2.9%
Cc1ccccc1C(=O)N1CCN(c2ccc([N+](=O)[O-])c(N3CCOCC3)c2)CC1,-6,0%,-6%,7.9%
CN(c1cccc(NC(=O)COc2ccc(Cl)cc2Cl)c1)S(C)(=O)=O,-11,-45%,-22%,0.2%
O=C(N/N=C/c1ccc([N+](=O)[O-])o1)c1cn2ccc3ccccc3c2n1,-1,1%,-6%,1.5%
CC(Oc1ccccc1)C(=O)Nc1nnc(S(=O)(=O)N2CCCCC2)s1 (configuration not stated),.,0%,-13%,1.6%
COC1OC2COC(c3ccccc3)OC2C(O)C1NC(C)=O (configuration not stated),.,.,-11%,-1.9%
CC(C)N(C(=O)Nc1ccc2nsnc2c1)C(C)C,-7,1%,?,?
O=C(CN(Cc1ccc(F)cc1)C(=O)c1ccco1)NCc1ccc(F)cc1,0,1%,-2%,0.1%
O=C(CCC(=O)c1cccs1)NCc1cccc(C(F)(F)F)c1,.,.,7%,-2.5%
CN(C)c1ccc(/C=C2\C(=N)N3N=C(CC(=O)N4CCCC4)SC3=NC2=O)cc1Br,.,2%,?,?
CN(C)C(CNC(=O)c1cccc(S(=O)(=O)Nc2ccccc2Cl)c1)c1ccccc1 (configuration not stated),.,.,-5%,-0.6%
CCOc1ccc2nc(N3CCC(C(=O)N4CCN(C5CCCCC5)CC4)CC3)sc2c1,7,-25%,-10%,-1.8%
CC(NCc1cc(Br)ccc1OCC(=O)NCc1ccccc1)c1ccccc1 (configuration not stated),3,26%,-8%,-0.2%
CCOc1cc(/C=C(\CC(=O)O)c2nc3ccccc3s2)ccc1OCC(=O)Nc1cccc(C(F)(F)F)c1,.,.,-7%,0.5%
Cc1nc(-c2cn[nH]c2-c2ccc(O)cc2O)cs1,0,-2%,16%,4.3%
Cc1csc(NC(=O)c2sc3nc(-c4cccs4)ccc3c2N)n1,0,-17%,?,?
CCCCN=C1NN=C(c2cc3ccccc3o2)CS1,?,-35%,-6%,-2.9%
# (next part)
SMILES,GLA inh pH 4.5,miR-21 FLuc,Rango dissoc inh,Rango complex inh
CC(OC(=O)CNC(=O)c1ccc(Br)cc1)C(=O)NC1CCCCC1C (configuration not stated),.,.,19%,-2.0%
COc1cc(OC)cc(-c2c(C#Cc3ccsc3)c3cc(-c4ccc(OC)nc4)ccc3n2C)c1,.,.,-16%,?
O=C(Nc1ccccc1C(F)(F)F)c1cc(-c2ccco2)on1,.,-49%,1%,1.2%
CC(C)CCN1CCC(CN2C(=S)NC[C@@H]2Cc2ccccc2)CC1,.,.,0%,-1.1%
CCN1CCN(S(=O)(=O)c2ccc(Cl)c(C(=O)NC3CCCCC3)c2)CC1,.,.,2%,0.0%
O=C1c2ccccc2NC(c2cccc(O)c2)N1O (configuration not stated),.,-18%,16%,-0.6%
COc1ccc(-c2nc(Cn3c(SCc4cccc(F)c4)nc4ccncc43)c(C)o2)cc1OC,-10,0%,-12%,0.2%
Cc1ccc(-c2nc(C#N)c(NCc3ccco3)o2)cc1,-10,-66%,0%,0.5%
CN(C)CCCNc1oc(-c2ccc(Cl)cc2)nc1S(=O)(=O)c1ccccc1,.,.,4%,-4.7%
O=C(Nc1ccc(Cl)cc1)Nc1nc(-c2ccccc2O)cs1,2,27%,1%,-1.3%
CCN(CC)c1nc(C)c(C(=S)Nc2cc([N+](=O)[O-])ccc2Cl)s1,-8,-4%,-18%,?
CCC(c1nnnn1Cc1ccc(F)cc1)N1CCN(C2CCCCC2)CC1 (configuration not stated),-1,-2%,-13%,0.4%
Cc1ccccc1NC(=O)CN1C(=O)N/C(=C\c2ccccc2OCc2ccc(C(=O)O)cc2)C1=O,.,-5%,6%,-9.4%
COc1ccc(Cl)cc1N(C(=O)c1ccco1)C(C(=O)NC1CCCC1)c1ccco1 (configuration not stated),.,10%,2%,-4.8%
S=C(NCCc1c[nH]c2ccccc12)NC1CCCC1,-2,-10%,27%,-3.1%
O=C(NCCN1CCOCC1)/C(=C\c1ccc(Br)cc1)NC(=O)c1cccs1,-3,-1%,0%,0.4%
CNC(=O)c1cccc(NC(=O)c2cc(-c3ccccc3)nc3c2cnn3C(C)C)c1,.,.,0%,5.7%
CS(=O)(=O)c1ccccc1C(=O)Nc1cc(Cl)ccc1-n1cncn1,.,.,5%,1.2%
c1cn2cc(CSC3CCCCC3)nc2s1,-23,-33%,-8%,1.0%
S=C1NC[C@H](Cc2ccccc2)N1CCc1cccc2ccccc12,-14,11%,27%,-0.2%
O=C1c2cnc3nc(SCc4cccc(Cl)c4)nn3c2CC2c3ccccc3CCN12 (configuration not stated),8,-3%,6%,-0.9%
Cc1ccc(S(=O)(=O)N2CCN(C(=O)COC(=O)CSc3ccc(C)c(C)c3)CC2)c(C)c1,.,.,25%,-3.7%
O=C(CN1C(=O)c2ccccc2C1=O)Nc1cccc(Cl)c1,.,3%,5%,-0.2%
Cc1n[nH]c(=S)n1Cc1ccccc1,4,-3%,-17%,-3.1%
Cc1ccc([N+](=O)[O-])cc1S(=O)(=O)N1CCCN(C)CC1,.,-1%,0%,1.5%
# Further entries:
SMILES,GLA inh pH 4.5,miR-21 FLuc,Rango dissoc inh,Rango complex inh
O=C(O)c1ccc(C(=O)c2cc([N+](=O)[O-])cc([N+](=O)[O-])c2)cc1,.,.,-10%,0.0%
S=C(NCc1ccc2c(c1)OCO2)NCc1ccc2c(c1)OCO2,-1,-26%,1%,-4.4%
CCN(c1ccccc1)S(=O)(=O)c1ccc(Cl)c(NC(=O)COC(=O)c2cccc(OC)c2O)c1,-7,-9%,5%,-0.6%
Cc1nc(NS(=O)(=O)c2ccccc2)sc1C(=O)NNS(=O)(=O)c1ccccc1,.,0%,-18%,-0.3%
O=C1c2ccccc2C(=O)C1c1ccc2ccccc2n1,-5,-25%,-19%,-4.0%
O=[N+]([O-])c1ccc(S(=O)(=O)Nc2nnc(C3CCCCC3)s2)cc1,.,1%,-5%,5.3%
COc1ccc(OC)cc1,.,.,0%,5.9%
O=C(COC(=O)c1ccc(Br)o1)Nc1ccc(F)cc1[N+](=O)[O-],.,.,-20%,5.9%
O=C(CCCCCn1c(=O)[nH]c2ccsc2c1=O)N1CCCCC1,-7,-6%,-7%,0.4%
O=C(Nc1cc(S(=O)(=O)N2CCOCC2)ccc1N1CCOCC1)c1cc2c(s1)CCC2,-14,3%,1%,-1.8%
COc1ccc(N(C(C)C(=O)N/N=C/c2cc(Br)c(C)o2)S(C)(=O)=O)cc1 (configuration not stated),3,-1%,-1%,5.1%
O=C(Cc1ccc(NC(=O)C2CCN(C(=O)C3CCCCC3)CC2)cc1)Nc1cccc(C(=O)N2CCCCC2)c1,.,.,-11%,-1.3%
CS(=O)(=O)N1CCC(Oc2ccccc2C(=O)NC(C2CC2)C2CC2)CC1,5,-7%,-15%,4.2%
O=C(Cn1c2ccccc2c2nc3n(c(=O)c21)CCS3)Nc1ccccc1,.,-1%,16%,-3.1%
CCCn1nnnc1NCc1ccccc1F,.,4%,5%,0.9%
CCn1ncc(NC(=O)Nc2cccc(C(F)(F)F)c2)c1C(N)=O,0,-4%,-8%,?
O=C(CN1CCCCCC1)N/N=C/c1ccc(Cl)c(Cl)c1,3,-20%,0%,-2.7%
CCn1c(O)c(/C=C2\C=NN=C2c2ccc(C)cc2)sc1=S,-3,-5%,-7%,-4.8%
CCOC(=O)C1=NNC(=O)C1,.,.,-2%,-3.4%
COc1cc(S(=O)(=O)Nc2cccc(C)c2)ccc1NC(=O)c1ccncc1,4,5%,3%,0.2%
O=C(COC(=O)/C=C/c1cccc([N+](=O)[O-])c1)Nc1cccnc1Cl,.,.,10%,-3.6%
CCN(CC)CCNC(=O)CCc1c(C)nc2c(c(C)nn2-c2ccc(C)cc2)c1C,.,?,-3%,1.0%
N#Cc1c(N2CCCC2)nsc1-c1ccccc1,.,-66%,-1%,0.1%
O=C(CSc1nc2[nH]c(=O)cc(O)c2s1)Nc1ccc(Br)cc1,.,.,-5%,-2.8%
COc1ccc(CCNC(=O)c2cc(CC(C)C)on2)cc1OC,-13,-11%,-1%,-1.6%

# 3 records drawn at random from the list so far:
SMILES,GLA inh pH 4.5,miR-21 FLuc,Rango dissoc inh,Rango complex inh
O=C(CN1CCCCCC1)N/N=C/c1ccc(Cl)c(Cl)c1,3,-20%,0%,-2.7%
Cc1nc(NS(=O)(=O)c2ccccc2)sc1C(=O)NNS(=O)(=O)c1ccccc1,.,0%,-18%,-0.3%
O=C(COC(=O)/C=C/c1cccc([N+](=O)[O-])c1)Nc1cccnc1Cl,.,.,10%,-3.6%

# Next section
SMILES,GLA inh pH 4.5,miR-21 FLuc,Rango dissoc inh,Rango complex inh
COc1ccc(N(CC(=O)Nc2cc(C)ccc2C)S(=O)(=O)c2ccccc2[N+](=O)[O-])c(OC)c1,10,5%,3%,-1.7%
Cc1ccc2[nH]cc(C(=O)CN3CCN(c4ccccc4F)CC3)c2c1,8,-3%,-14%,-4.1%
c1ccc2sc(Sc3ncnc4sccc34)nc2c1,-8,1%,15%,-2.6%
Cc1ccc(SCCC(=O)OCC(=O)Nc2ncc(Cl)cc2Cl)cc1,-2,2%,2%,2.1%
Cc1cc(C)c(NC(=O)C2c3ccccc3Oc3ccccc32)c(C)c1,-1,1%,-6%,0.0%
COc1ccc(-c2csc3nc(C)nc(N4CCC(C)CC4)c23)cc1OC,-2,3%,1%,3.7%
O=C(NCc1cccnc1)c1cc2ccccc2oc1=O,12,-2%,-8%,0.3%
CC(C(=O)N1CCOCC1)c1ccccc1 (configuration not stated),.,.,-3%,-0.4%
CC(Sc1cnc2ccccc2n1)C(=O)O (configuration not stated),-6,0%,20%,3.1%
COc1ccc(S(=O)(=O)N2CCCCCC2)cc1C(=O)N(CC(C)C)C1CCS(=O)(=O)C1 (configuration not stated),.,.,11%,-3.0%
COCCCNC(=S)Nc1c(C)cc(C)cc1C,2,1%,-8%,3.1%
O=C(COc1c(F)c(F)cc(F)c1F)NC(=O)NC1CCCC1,-7,-7%,0%,-0.1%
Cc1ccccc1C(=O)Nc1cc(C(F)(F)F)ccc1-n1cncn1,.,.,-10%,0.1%
Cc1ccc(N(C(=O)CNC(=O)c2ccco2)C(C(=O)NC2CCCCC2)c2ccncc2)cc1F (configuration not stated),.,-1%,0%,-1.4%
Cc1ccc(S(=O)(=O)NCC(=O)N(CC(=O)NCC2CCCO2)Cc2ccco2)cc1 (configuration not stated),-7,-17%,-10%,-0.5%
O=C(CN1CCCc2ccccc21)NCCc1ccc(F)cc1,5,1%,-1%,-5.2%
COc1cc(OC)cc(C(=O)NC(c2ccccc2)c2ccccc2)c1,.,1%,14%,0.1%
COc1ccccc1N=c1scc(-c2ccc3c(c2)NC(=O)CO3)n1CC1CCCO1 (configuration not stated),-15,19%,10%,-1.7%

# These rows are one share of the data, so the mix of outcomes need not match the whole.
